Screening data deposited in PubChem by several laboratories.
Beta cell apopt: blocks beta cell apoptosis | INS-1E cytokine-induced death, ATP luminescence, 48 h; percent of positive-control rescue, neutral wells zero | protection from apoptosis, % (no concentration beside the values) | 0.8% of 300,000 active | AID 435005;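 active = all replicates at 75% or more, or half of them and the mean; inconclusive = half reach 75% but not the mean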;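 also: 0% = cytokine-treated negative control wells and 100% = positive control rescue; higher means more ATP so stronger rescue from cytokine killing; wells of about 40 µL received 100 nL stock; the first replicate is given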
Ecoli rRNA inh: inhibits bacterial ribosomal RNA function over humanized ribosomes; E. coli WT GFP vs humanized-ribosome RFP mutants, fluorescence, 24 h; stronger effect = lower value; DMSO median 0, no signal -100; GFP signal change (wild-type ribosome), % (test concentration not listed); 1.6% of 350,000 active; AID 720706;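 active = significant combined selectivity score with lowered wild-type GFP, culture density cut under 30%, mutant RFP and density less affected; inactive = any of these conditions unmet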; also: one replicate is shown; some compounds called inactive have numbers as strong as hits
LANA-H2B inh: blocks KSHV LANA binding to histone H2A/H2B. Q9QR71. cell-free LANA-H2A/H2B peptide, fluorescence polarization. inhibition, % (no concentration beside the values). 0.6% of 320,000 active; in the data active = inhibition mostly above about 10%, no sharp cut-off; inactive = mostly below about 6.7%;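 also: stock transfer was 7.5 nL into about 10 µL; 0% = median of vehicle wells and 100% = median of positive control wells; one replicate is shown; the record names a cut of 25% in any replicate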
Target sequence (Q9QR71 whole entry, looked up): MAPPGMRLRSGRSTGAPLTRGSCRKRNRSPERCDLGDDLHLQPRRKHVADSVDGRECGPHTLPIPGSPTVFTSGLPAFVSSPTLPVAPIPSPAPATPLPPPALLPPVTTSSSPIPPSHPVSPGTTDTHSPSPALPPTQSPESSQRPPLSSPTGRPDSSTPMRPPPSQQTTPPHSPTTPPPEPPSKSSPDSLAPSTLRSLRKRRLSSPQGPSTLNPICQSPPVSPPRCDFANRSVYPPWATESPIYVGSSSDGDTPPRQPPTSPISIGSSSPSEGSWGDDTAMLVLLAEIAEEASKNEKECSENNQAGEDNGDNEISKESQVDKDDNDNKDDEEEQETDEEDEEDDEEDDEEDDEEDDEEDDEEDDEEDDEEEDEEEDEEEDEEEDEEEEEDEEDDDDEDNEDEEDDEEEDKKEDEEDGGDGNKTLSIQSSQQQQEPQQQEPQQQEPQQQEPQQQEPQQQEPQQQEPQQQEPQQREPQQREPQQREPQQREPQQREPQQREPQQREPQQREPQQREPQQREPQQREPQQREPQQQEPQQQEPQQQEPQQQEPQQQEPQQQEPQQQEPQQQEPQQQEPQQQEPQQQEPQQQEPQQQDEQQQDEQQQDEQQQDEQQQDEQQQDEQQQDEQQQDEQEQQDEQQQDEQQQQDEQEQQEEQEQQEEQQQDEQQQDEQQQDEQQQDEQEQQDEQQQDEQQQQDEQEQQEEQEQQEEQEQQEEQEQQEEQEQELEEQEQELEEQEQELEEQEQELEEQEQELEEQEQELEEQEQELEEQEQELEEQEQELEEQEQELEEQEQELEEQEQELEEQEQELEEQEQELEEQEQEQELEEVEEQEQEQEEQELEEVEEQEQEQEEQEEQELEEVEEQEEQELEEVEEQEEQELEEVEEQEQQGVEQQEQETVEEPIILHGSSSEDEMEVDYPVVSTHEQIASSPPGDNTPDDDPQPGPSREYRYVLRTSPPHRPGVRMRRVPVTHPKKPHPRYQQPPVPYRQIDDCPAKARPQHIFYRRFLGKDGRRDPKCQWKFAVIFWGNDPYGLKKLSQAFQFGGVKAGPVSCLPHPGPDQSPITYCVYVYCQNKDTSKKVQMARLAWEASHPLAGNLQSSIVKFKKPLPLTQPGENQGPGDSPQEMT
Calb FLC: C. albicans growth modulation with fluconazole | C. albicans CaCi-2 (fluconazole-resistant clinical isolate) + fluconazole, Alamar Blue growth, 48 h | growth inhibition, % (test concentration not listed) | 0.57% of 300,000 active | AID 1979;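 active = most replicates above 75%; inconclusive = exactly half above 75%; inactive = most below 75%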;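 also: all wells also contain fluconazole at 8 µg/ml as a sub-toxic cotreatment; 0% = median of DMSO wells and 100% = median of geldanamycin control wells; wells of about 8 µL received 7.5 nL stock; the first replicate is given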
ALR H2O2 inh: blocks human ALR sulfhydryl oxidase activity; AID 485317; purified ALR, DTT oxidation, H2O2 HRP-luminol luminescence; 3.8% of 290,000 active; inhibition, % (test concentration not listed);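 active = mean and each replicate at 75% or more; inconclusive = only one of the two met; inactive = neither met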;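 also: stock transfer was 7.5 nL into about 7.5 µL; 0% = neutral wells and 100% = wells with inactivated enzyme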
T cruzi inh: blocks replication of Trypanosoma cruzi; T. cruzi beta-gal in NIH3T3, luminescence, 90 h; inhibition, % (no concentration beside the values); 1.4% of 300,000 active; AID 1885;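 active = mean inhibition across valid replicates above about 55%, limit read from the data; inconclusive = mean below that limit but half or more replicates reach it; inactive = mean below it, under half of replicates reach it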;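 also: signal also drops with host cell toxicity which is not excluded here; 0% = plate median of DMSO wells and 100% = zero luminescence signal; higher percent means less beta-gal luminescence so fewer parasites; stock transfer was 50 nL into about 50 µL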
A1 inh: inhibitors of the anti-apoptotic protein A1, read as caspase activation. caspase activation, % (no concentration beside the values). MEF A1-2A-BIM cells, Caspase-Glo 3/7 luminescence, 3 h; percent of clofoctol response, vehicle zero. 0.066% of 330,000 active. AID 2462;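 active = over half of replicate activation scores above 10%, or exactly half above 10 with the replicate mean above 10; inconclusive = replicate mean below 10 yet half the replicates above 10; inactive = over half of replicates below 10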;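 also: wells of about 30 µL received 50 nL stock; many hits fall short of the cut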
B2AR ag: human beta-2 adrenergic receptor agonism by FAP. P07550. Am2.2-beta2AR cells, FAP receptor internalization, flow cytometry; reference of the scale not given here. response, % (test concentration not listed). 0.43% of 340,000 active. AID 504454;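 active = response above a set limit, near 3 SD of response in nonfluorescent compounds, cut at about 42% in these data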;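 also: stock transfer was 100 nL into about 11 µL; a reference agonist was the positive control; negative values mostly stem from fluorescent compounds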
Ecoli rRNA inh OD600: further read-out of Ecoli rRNA inh, marked with its call; OD600 change, %; measured here: OD600 growth;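 optical density of the mix in the first replicate; 0 = DMSO median and -100 = no signal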
Ecoli rRNA inh RFP: recorded beside Ecoli rRNA inh, whose call it bears; RFP signal change, %; measured here: RFP humanized mutant strains;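 first replicate; 0 = DMSO median and -100 = no signal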
* = called active by the depositor; ? = inconclusive; / = not tested or not shown; & = joins results of further samples. This is a subset; count on the stated rates, not on these rows.

Results follow in this order: Beta cell apopt | Ecoli rRNA inh | Ecoli rRNA inh OD600 | Ecoli rRNA inh RFP | LANA-H2B inh | Calb FLC | ALR H2O2 inh | T cruzi inh | A1 inh | B2AR ag
- O=C(CCC(=O)N1CCSc2ccccc21)NCc1ccccc1
 : 1 | 3 | 0 | -3.8 | -0.8 | -2 | 1 | -2 | 0.1 | -11
- COc1ccc(CNC(=O)C(c2ccncc2)N(C(=O)Cc2cccs2)c2cccnc2)cc1 (stereo not drawn)
 : 2 | 6 | 5 | -5.5 | 1.9 | 28 | -13 | 8 | -1.1 | -7
- CC(C)c1nn2c(=O)cc(COc3cccc(NC(=O)c4ccco4)c3)nc2s1
 : 1 | 10 | 7 | 1.3 | 0.8 | -1 | -6 | 4 | -0.4 | -10
- Cc1ccc(N2C(=O)CC(n3ccnc3)C2=O)cc1C (stereo not drawn)
 : -5 | / | / | / | 0.4 | 5 | 1 | -10 | -0.5 | 2
- O=C(NC(=S)NCc1ccccc1)c1ccc(Br)cc1
 : -4 | -15 | -6 | 0.1 | -5.5 | -15 | 19 | -6 | 0.3 | -12
- O=C(Nc1nc(-c2ccc(Cl)cc2)cs1)C1=COCCO1
 : 9 | -17 | -20 | 0.4 | -4.8 | -16 | -7 | 16 | 0.8 | 8
- CCOC(=O)c1ccc(NS(=O)(=O)c2ccc(Cl)nc2)cc1
 : 1 | / | / | / | 11 | 32 | 0 | -17 | -0.2 | /
- Cc1ccccc1Nc1nc(-c2cccnc2)nc2ccccc12
 : 19 | -10 | -23 | -17 | -6.1 | 3 | / | 59* | 0.3 | -8
- COc1ccc2nc(/N=C(\N)NC(=O)N3c4ccccc4Sc4ccccc43)nc(C)c2c1
 : 17 | / | / | / | 1.4 | -7 | 0 | 17 | -0.4 | -2
- CC(=O)c1cccc(OCc2cc(C(=O)NC3CCN(Cc4ccccc4)CC3)no2)c1
 : 12 | 3 | 11 | 2.3 | -0.6 | 15 | -3 | -23 | 1.3 | -9
- CCCS(=O)(=O)c1c(S(=O)(=O)CCC)c2cc(CC)ccn2c1C(=O)OC
 : -1 | / | / | / | -2.2 | 9 | -69 | 21 | -0.2 | 10
- COc1ccc(S(=O)(=O)N2CCOCC2)cc1NC(=O)CN1C(=O)NC2(CCCC2)C1=O
 : 1 | / | / | / | -0.7 | / | -5 | / | 0.7 | -7
- CC(C)COc1cccc(C(=O)Nc2ccc(S(=O)(=O)N3CCOCC3)cc2)c1
 : -3 | -8 | -7 | 0.2 | 1.5 | ? | -1 | 41 | -0.5 | 22
- Cc1nn(-c2ccccc2)c2c1C1(C(=O)N3c4c(cccc41)C(C)CC3(C)C)C(C#N)=C(N)O2 (stereo not drawn)
 : -3 | -46* | -3.0* | 2.3* | -6.2 | 6 | 11 | -8 | 0.4 | 6
- CCSc1nnc(NC(=O)CSc2nc3c(c(=O)n2C)SC(C)C3)s1 (stereo not drawn)
 : 10 | / | / | / | -2.9 | 33 | -11 | 18 | -0.8 | -12
- CC(=O)c1ccc(N2CCN(c3ccc4cc(S(=O)(=O)N5CCC(C)CC5)ccc4n3)CC2)cc1
 : 23 | 5 | 9 | -2.9 | -2.4 | -8 | -3 | -9 | -0.2 | 32
- Cc1ccc(C(=O)N2CCN(C34CC5CC(CC(C5)C3)C4)CC2)o1
 : -10 | 2 | 5 | -0.1 | 2.7 | / | -6 | -10 | 1.0 | -3
- Cc1cc(C)c(NC(=O)CSc2nnnn2-c2cccnc2)c(C)c1
 : -6 | 4 | 4 | 0.1 | 1.5 | 1 | / | -4 | 0.6 | 13
- Cc1cccc2c(=O)cc(C(F)(F)F)[nH]c12
 : 0 | -19 | -12 | -3.0 | -0.1 | 29 | -2 | 5 | -0.7 | 13
- CC1Cc2ccccc2N1C(=O)CSc1nncs1 (stereo not drawn)
 : -6 | 5 | 6 | 1.9 | -4.6 | / | -5 | / | 1.8 | -1
- O=C(CCN1C(=O)C2C3C=CC(C3)C2C1=O)Oc1ccc2ccccc2c1 (stereo not drawn)
 : 1 | 4 | -3 | -3.6 | 3.4 | 17 | -29 | -16 | -0.3 | 15
- CN(Cc1ccc(Cl)s1)C(=O)CCl
 : -8 | 4 | 7 | -2.0 | 0.0 | 8 | 4 | 59* | 0.1 | 2
- COc1cccc(NC(=O)[C@H](NC(=O)[C@@H]2Cc3ccccc3CN2)c2ccccc2)c1
 : -6 | 1 | 5 | 2.5 | -2.7 | 0 | -11 | 13 | -0.7 | 5
- Cc1cccn2c(=O)c3cc(C(=O)NCC(C)C)sc3nc12
 : -1 | -6 | -2 | -8.1 | -0.1 | 9 | 5 | -3 | -2.8 | -19
- COC(=O)c1ccc(Oc2nc3c(c(=O)n(C)c(=O)n3C)n2CCC(C)C)cc1
 : / | / | / | / | 2.6 | -6 | / | -6 | -0.3 | -4
- O=[N+]([O-])c1ccc2oc(C3CCCCC3)nc2c1
 : -4 | -37 | -39 | -9.9 | -3.3 | -11 | 2 | 3 | -2.5 | -3
- Cc1csc(NC(=O)C2CCN(C(=O)c3ccccc3C)CC2)n1
 : -6 | 3 | 0 | -0.8 | 1.3 | -42 | -15 | -7 | ? | 8
- CC(=O)Nc1ccc(NS(=O)(=O)c2ccc(C)cc2)cc1[N+](=O)[O-]
 : -7 | 7 | 7 | 0.9 | -3.7 | -4 | 0 | -2 | 1.4 | 0
- COCCn1c(=NC(=O)c2ccco2)sc2cc(C(=O)OC)ccc21
 : / | / | / | / | -2.4 | -1 | 5 | -13 | -0.3 | -10
- CC1CC(NC(=O)C2(C)CC2(Cl)Cl)CC(C)(C)C1 (stereo not drawn)
 : -2 | / | / | / | -2.2 | 1 | -7 | 16 | 1.5 | -1
- COc1ccc(C2c3ccc(O)cc3Oc3ncn4nc(-c5cccnc5)nc4c32)cc1OC (stereo not drawn)
 : 4 | -2 | -3 | 14 | 4.8 | 1 | -3 | 23 | -0.2 | -1
- CCO[C@H]1OC(C(=O)N2CCOCC2)=C[C@@H](c2ccc3c(c2)OCO3)[C@@H]1CCCO
 : -6 | 9 | 6 | -11 | 2.5 | -6 | -6 | -11 | ? | -5
- CC(NC(=O)c1cccs1)c1ccc(Br)cc1 (stereo not drawn)
 : 0 | -5 | -3 | -4.7 | -3.1 | -40 | -7 | 9 | 0.1 | 7
- CCOC(=O)C(=O)Nc1nnc(COc2ccccc2)s1
 : -5 | 4 | 3 | 2.8 | -1.4 | 1 | 3 | 2 | -0.5 | 10
- N/C(=N\OC(=O)COc1ccc(Br)cc1)c1cccnc1
 : -4 | / | / | / | 10.0 | 6 | 1 | 11 | -0.6 | -1
- CC1=CCC2C(=O)N(c3ccc(C)cc3)C(=O)C2C1 (stereo not drawn)
 : -28 | / | / | / | -0.9 | -4 | -1 | -21 | -0.5 | 4
- COc1ccc(/C=N/n2c(C)nc3sc(C)c(C)c3c2=O)cc1OC
 : 0 | 14 | 9 | 2.8 | 0.0 | -4 | -1 | -4 | 0.0 | -3
- O=C(C[C@@H]1C/C=C\CC[C@H](Cc2ccc(F)cc2)C(=O)OC[C@@H]2CCCN2C1=O)N[C@H](CO)Cc1ccccc1
 : -9 | -20 | -49 | -6.9 | / | / | -8 | / | 0.3 | 1
- CN=C1SC(CC(=O)Nc2ccc(F)cc2F)C(=O)N1/N=C/c1ccc(OC(F)F)c(OC)c1 (stereo not drawn)
 : 22 | -2 | 7 | -3.6 | -0.7 | 1 | -11 | 31 | -0.3 | 18
- CC(C)CNC(=O)C(=O)NN=C1CCCCCC1
 : 3 | / | / | / | 2.6 | 5 | -4 | 11 | -0.4 | -3
- COc1ccc(NC(=O)CSCC(=O)Nc2ccccc2N2CCCC2)cc1
 : 0 | -10 | -10 | 1.0 | -12 | -2 | 99* | 2 | 0.9 | -4
- CCc1cc(C(=O)Nc2nc(-c3ccccn3)cs2)sc1C
 : 60 | -46 | -73 | -18 | / | / | -5 | / | 0.4 | -1
- Cc1ccc(CNC(=O)c2ccc(N3CCC4(CC3)CC(c3cccc(Br)c3)=NO4)c([N+](=O)[O-])c2)cc1
 : 3 | 13 | 13 | 1.5 | 0.8 | -6 | 0 | 35 | 0.0 | -6
- COc1ccc(CCNC(=O)c2ccc(Cl)cc2)cc1OC
 : -1 | 1 | -4 | -0.7 | 5.8 | 32 | -10 | -3 | 0.5 | 8
- N/C(Cc1ccc([N+](=O)[O-])cc1)=N\OC(=O)c1ccccc1F
 : 6 | 15 | 12 | -1.1 | -8.8 | 12 | 41 | 16 | 0.1 | 8
- COc1cc(NC(=O)CN2CCN(Cc3ccc4c(c3)OCO4)CC2)cc(OC)c1
 : 0 | / | / | / | 14 | 0 | -7 | -5 | 2.9 | 2
- O=S(=O)(c1c(Cl)cc(Br)cc1Cl)N1CCN(C(=S)NC2CC2)CC1
 : -9 | / | / | / | 2.4 | / | -7 | / | 1.2 | -25
- CCOc1ccccc1NC(=O)c1ccc(S(=O)(=O)N(C)C)cc1
 : 5 | / | / | / | 1.3 | -14 | 0 | 5 | -0.7 | 1
- Cc1ccc(/C=C2\SC(=S)N(C3CCS(=O)(=O)C3)C2=O)o1 (stereo not drawn)
 : -10 | 5 | 10 | 3.4 | 0.7 | ? | -5 | 8 | -0.2 | 1
- CCC1Nc2ncnc(N3CCN(c4ccccc4)CC3)c2N(Cc2ccccc2)C1=O (stereo not drawn)
 : -1 | 7&-9 | 6&-6 | 1.1&-2.5 | 0.1 | / | 14 | / | -0.2 | -4
- CCCCCCCn1c(C)nnc1-c1cnn(C)c1N
 : 2 | 6 | 5 | 0.2 | / | -4 | / | -7 | 0.2 | 5
- O=C(O)CC(NC(=O)C12CC3CC(CC(C3)C1)C2)c1ccc2c(c1)OCO2 (stereo not drawn)
 : -6 | 13 | 16 | 0.7 | -0.4 | -1 | 1 | -23 | -1.1 | 4
- C/C(=N\NC(=O)C1CC1)c1ccc(C)cc1C
 : -4 | 15 | 10 | 1.0 | 1.2 | 0 | -3 | 2 | 0.6 | -12
- O=C1Nc2ccc(Br)cc2C1=C1CCCCC1
 : 3 | -28 | -41 | -3.3 | -2.6 | 2 | 63 | -10 | 0.3 | -9
- Cc1cc(C)cc(-n2c(C)cc(/C=N\NC(=O)COc3cccc4cccnc34)c2C)c1
 : -2 | -21* | -14* | -1.2* | -4.5 | 8 | / | 26 | -0.2 | 10
- CCCCc1ccc(NC(=O)CSC2=C(C#N)C(c3ccco3)C3=C(CCCC3=O)N2)cc1 (stereo not drawn)
 : 2 | / | / | / | 1.3 | -2 | 98* | 41 | -0.7 | -4
- OCC1(Cc2cccc(Cl)c2)CCCN(Cc2cnn(-c3ccccc3)c2)C1 (stereo not drawn)
 : -14 | -15 | -20 | 22 | -0.6 | 22 | 1 | 24 | -0.6 | 4
- O=C(OCc1ccc([N+](=O)[O-])cc1)c1cc(=O)c2ccccc2o1
 : -2 | 8 | 6 | -0.3 | 0.4 | 0 | -3 | -9 | 0.4 | 0
- CCc1nnc(NS(=O)(=O)c2ccc(NCc3cc(Cl)ccc3O)cc2)s1
 : -9 | 5 | 8 | -2.8 | 6.0 | 18 | 32 | -12 | 0.2 | -3
